GIV-Gai inh – inhibitors of GIV GBA-motif binding to rat Galpha-i3; Galpha-i3/FITC-GIV peptide fluorescence polarization, 90 min; hits give low values; scaled: aluminum fluoride 0%, vehicle 100%; percent of control (FP), % (concentration not given with the values); hit rate 0.42% among 210,000;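 active = replicate mean at 85% of control or lower, very high polarization wells dropped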;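 also: wells of about 15 µL received 100 nL stock; the first replicate is given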
Target sequence (P08753 whole entry, looked up): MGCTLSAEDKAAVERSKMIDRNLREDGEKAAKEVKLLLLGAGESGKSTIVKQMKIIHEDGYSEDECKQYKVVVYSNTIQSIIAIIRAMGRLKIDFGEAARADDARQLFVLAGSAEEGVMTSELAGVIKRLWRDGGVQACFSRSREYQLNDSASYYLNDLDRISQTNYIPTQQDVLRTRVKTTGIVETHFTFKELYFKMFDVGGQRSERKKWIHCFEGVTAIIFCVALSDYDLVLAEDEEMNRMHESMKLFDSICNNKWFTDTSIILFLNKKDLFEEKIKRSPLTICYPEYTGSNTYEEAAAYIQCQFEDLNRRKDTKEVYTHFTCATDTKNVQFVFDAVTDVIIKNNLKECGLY
Sa growth 42C – inhibitors of Staphylococcus aureus growth at 42 °C | S. aureus RN4220 growth, OD600, 20 h; hits give low values | relative growth, % (concentration not given with the values) | hit rate 0.53% among 170,000;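 active = growth at 42 °C up to 50% and 20 or more points under that at 30 °C, or under 10% at both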;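 also: 300 nL library stock went into each well; scaled to the means of positive and negative controls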
HCMV NEC inh – inhibitors of HCMV UL50-UL53 nuclear egress complex interaction. HTRF UL50-UL53 interaction, normalized percent inhibition. inhibition, % (no concentration beside the values). hit rate 0.15% among 190,000. AID 1918969;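 active = both replicates at 50% or more, plus weaker picks with an unusually low signal ratio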;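 also: stock transfer was 100 nL into about 20 µL; 0% = negative control wells and 100% = wells with untagged competitor protein; inactives centre near -12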
Sa growth 42C second temp – also measured in Sa growth 42C; calls as there; relative growth, %; measured here: growth at 30 °C;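 optical density after 20 h as mean of two plates; 100% = untreated growth and lower means inhibition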
* marks the source's active call; other numbers are inactive results; nt = not tested or not shown; & = joins results of further samples.

SMILES	GIV-Gai inh	Sa growth 42C	Sa growth 42C second temp	HCMV NEC inh
Cc1ccc2cc(NC(=O)c3cccc4c3OC(C)(C)C4)ccc2n1	104	68	39	0
COc1ccc(C2CC(=O)Nc3nc(N)[nH]c(=O)c32)cc1OC (stereo unspecified)	96	nt	nt	-1
CN(C)S(=O)(=O)c1cccc(N)c1	98	nt	nt	-28
CC1(C)CC(=O)C(C=NCC2CCCO2)=C(O)C1 (stereo unspecified)	99	108	83	nt
NC(=O)c1ccc(NC(=O)COC(=O)c2ccc(-n3cnnn3)cc2)cc1	nt	90	95	-11
O=C(CN1C(=O)CCSc2ccccc21)Nc1ccc(C(F)(F)F)cc1	110	83	100	-6
O=C1CCCc2cc(S(=O)(=O)N3CCCC(C(=O)NC4CCCC4)C3)ccc2N1 (stereo unspecified)	106	103	99	2
Cc1ccc(Cl)c2sc(N3CCN(C(=O)C4CC4)CC3)nc12	97	88	71	nt
CCCCNC(=O)c1cccc(NC2=NC3CS(=O)(=O)CC3S2)c1 (stereo unspecified)	104	103	91	-15
Cn1ncc2c3ccccc3n(CCCC(=O)N3CCc4ccccc43)c2c1=O	100	nt	nt	-28
Nc1ccccc1OCCN1CCOCC1	103	92	87	-26
CCCNc1ncccc1C(N)=O	105	68	80	-8
CCOC(=O)NC(=O)c1cn(Nc2ccccc2)c(=O)[nH]c1=O	105	102	74	-27
Oc1c(C(c2ccccc2Cl)N2CCCC2)sc2nc(-c3ccco3)nn12 (stereo unspecified)	94	111	90	nt
CC(SCc1ccccc1)C(=O)N1CC(=O)Nc2ccccc21 (stereo unspecified)	104	104	100	-13
COC(=O)C1C(=O)C(C(=O)/C=C/c2ccco2)C(=O)CC1(C)C (stereo unspecified)	98	123	100	-8
O=C(Nc1ccc(C(=O)N2CCCCC2)cc1)c1ccc(=O)[nH]c1	105	96	94	nt
O=C(COc1ccccc1F)NC1CC(=O)N(c2ccc3c(c2)OCCO3)C1 (stereo unspecified)	100&102	110	86	nt
Cc1cccc(-c2nc(CSCC(=O)N3CCN(c4ccccc4)CC3)c(C)o2)c1	102	86	38	-23
CCc1ccc2ncc3c(-c4ccc(C)cc4)nn(CC(=O)NCc4ccccc4)c3c2c1	97	77	90	nt
Cn1c(=O)n(C)c2cc(N3CCCCC3)c(NC(=O)NCc3ccccc3)cc21	102	nt	nt	-25
CCc1cccc(CC)c1NC(=O)C(CC)n1nc(C)n2c(cc3cc(C)ccc32)c1=O (stereo unspecified)	104	123	91	-21
O=S(=O)(c1ccc2[nH]c3c(c2c1)CCCC3)N1CCCCC1	94	95	81	nt
Cc1cc(C)cc(-n2nnnc2SCC(=O)Nc2cccc(NC(=O)c3ccco3)c2)c1	96	83	76	0
Cc1ccccc1Cn1c(CN2CCC(C(=O)NCCc3ccccc3)CC2)cc2ccccc21	98	112	96	nt
COCc1cc(C)nc(SCC(=O)NC23CC4CC(CC(C4)C2)C3)c1C#N	102	99	108	-2
COC(CNC(=O)c1cc2c(=O)n(C)c3ccccc3c2n1C)OC	99	93	95	nt
CCNC(=S)N1CCN=C1Nc1nc(C)cc(C)n1	100	112	89	nt
N#Cc1c(-c2cccs2)cc(-c2cccnc2)nc1N	104	100	89	-26
COc1cccc(C(=O)OCC(=O)N2CCc3ccccc3C2)c1	nt	91	82	-35

Of the compounds above, 2 contain an aryl thioether with sulfur outside any ring.
SMILES	GIV-Gai inh	Sa growth 42C	Sa growth 42C second temp	HCMV NEC inh
Cc1cc(C)cc(-n2nnnc2SCC(=O)Nc2cccc(NC(=O)c3ccco3)c2)c1	96	83	76	0
COCc1cc(C)nc(SCC(=O)NC23CC4CC(CC(C4)C2)C3)c1C#N	102	99	108	-2

Additional results.
SMILES	GIV-Gai inh	Sa growth 42C	Sa growth 42C second temp	HCMV NEC inh
COc1ccc(-c2sc(C(=O)O)c(C)c2C#N)cc1	106	88	77	-102
CN1CCN(CCCNC(=O)c2cnn(-c3ccccc3)c2C2CCN(C(=O)OC(C)(C)C)CC2)CC1	110	111	99	nt
N#Cc1nc(-c2cccc(O)c2)oc1N	nt	96	86	-18
CSC1=N/C(=C\C=C\c2cccs2)C(=O)S1	186	109	85	nt
Fc1ccc(-c2[nH]ncc2CN2CCCC2c2cccc(F)c2)cc1 (stereo unspecified)	106	nt	nt	-30
CCOc1ccc(NC(=O)CCCn2nc(CC)n3c(cc4occc43)c2=O)cc1	100	96	80	nt
O=C(O)CN1C(=O)Nc2ccc(Br)cc2C1c1ccccc1 (stereo unspecified)	109	100	101	2
CC1=[N+](CCC#N)CC(C)(C)C1	112	70	88	0
O=C1CCCc2c1cc(C(=O)N1CCOCC1)c(=O)n2-c1ccccc1	108	107	76	1
CCCOc1ccc(CNC(=O)CCCn2nc(C)c3sc4ccccc4c3c2=O)cc1	108	83	76	-8
Cc1ccc(-n2nc(N3CCCN(S(=O)(=O)c4ccc(C)c(Cl)c4)CC3)ccc2=O)cc1C	97	nt	nt	-40
O=C(NCc1csc(-c2cccs2)n1)c1ccccc1	108	107	80	-41
FC(F)(F)c1nc2ccccc2nc1Cl	108	106	105	4
COc1ccc(NC(=O)COCc2cc(-c3ccco3)on2)cc1	104	87	90	nt
COC(=O)c1cnn(-c2ccc(C(=O)Nc3ccc(OC(F)(F)F)cc3)cc2)c1N	96	95	85	nt
O=C(NCc1ccccn1)c1cc(-c2ccccc2O)no1	97	98	89	nt
CCCC(O)c1nc2ccccc2n1CCOc1ccc(C)cc1C (stereo unspecified)	107	nt	nt	-7
Cc1cc(C(=O)CN2CCCC2c2cccs2)c(C)n1-c1c(C)n(C)n(-c2ccccc2)c1=O (stereo unspecified)	nt	101	75	-11
O=C(c1cc2ccccc2o1)N1CCCc2ccccc21	nt	88	87	-15
Cc1c(C(=O)N2CCN(c3ccc(F)cc3)CC2)sc2ncnc(N3CCOCC3)c12	102	nt	nt	-10
COc1ccccc1N1CCN(c2nc3ccccc3n3cnnc23)CC1	103	95	93	-38
O=C(Cn1c(=O)oc2ccccc21)NCc1ccco1	96	113	94	nt
CC(C)c1ccc(NC(=O)C2CCCN(S(=O)(=O)c3cccc4cccnc34)C2)cc1 (stereo unspecified)	106	106	84	-23
O/N=C(\c1ccccc1)c1cc2ccccc2o1	105	53	37	-26
COc1ccc(-c2nc3ccccc3s2)cc1NC(C)=O	101	98	84	nt
O=C(COc1cccc(-n2cnnn2)c1)N1CCOCC1	105	97	86	-5
CC(C)C(NC(=O)c1ccccc1)C(=O)Nc1nc2ccc(Cl)cc2s1 (stereo unspecified)	nt	100	87	-26
COc1ccc(-c2cc(C3CC3)nc(SCC(=O)O)c2C#N)cc1	101	88	75	39
CCn1c(=O)c(=O)n(CC(=O)NCCc2cccc(OC)c2)c2cccnc21	101	nt	nt	-20
Cc1cc(OCC(O)CNC(C)(C)C)ccc1Cl (stereo unspecified)	105	110	90	nt
CCN(CC)C(=O)Cn1c(=O)c2ccccc2n2c(=S)sc(-c3ccccc3Cl)c12	104	nt	nt	-27
O=C(CSc1nc(=O)n(CCN2CCOCC2)c2c1CCCC2)Nc1cccc(C(F)(F)F)c1	100	93	91	-7
CCC(=O)Nc1nc2ccc(CC(=O)Nc3ccc(OC)c(OC)c3)cc2s1	102	nt	nt	-34
CC12COC3(C(=O)N4CCCCC4)CC1CCC32C (stereo unspecified)	nt	63	90	2
O=c1[nH]cccc1Br	100	98	91	-18
CC(C)COC(=O)c1ccc2c(c1)C1C=CCC1C(c1ccc(Cl)cc1)N2 (stereo unspecified)	115	124	87	nt
O=C(NC1CC1)c1cc(=O)[nH]c2ccc(Br)cc12	105	122	91	-5
COc1ccc(-c2c(C(F)(F)F)oc3cc(OCC(=O)OC(C)C)ccc3c2=O)cc1OC	100	nt	nt	-8
Cc1cc(=O)[nH]c2nnc(SCc3ccc(Cl)c(Cl)c3)n12	101	93	102	nt
O=C(NCc1ccccc1)c1cccc(NC(=O)N2CCCCc3ccccc32)c1	104	nt	nt	-11
COc1ccc(CCNCC(O)Cn2ccc3ccccc32)cc1OC (stereo unspecified)	100	90	82	nt
CCNc1sc(C(=O)OCC)c(N)c1C#N	nt	93	100	-8
CC(C)OC(=O)c1cc2c(ccn2-c2ccc(F)cc2)n1C	101	115	93	1
COc1nc2ccccc2cc1/C=C/C(=O)O	nt	102	93	-85
Cc1cc(C)nc(SCCC(=O)O)n1	100	92	98	6
O=C(CCCn1c(=O)[nH]c2ccccc2c1=O)N(Cc1ccccc1)Cc1ccccc1	103&99	95	84	3
COC(=O)C12C3CCC4C5C3C1C5(C(=O)OC)C42 (stereo unspecified)	nt	103	94	-21
CCn1cc(C(=O)N2CCN(c3ccccc3)CC2)c(=O)c2cc(S(=O)(=O)N(C)C)ccc21	101	108	93	-10
Cn1nccc1NC(=O)CSCC(=O)O	100	91	86	-24
Cc1cc(=O)n2nc(N3CCCC(C(=O)N4CCN(c5ccccc5)CC4)C3)sc2n1 (stereo unspecified)	108	94	83	nt

Additional results.
SMILES	GIV-Gai inh	Sa growth 42C	Sa growth 42C second temp	HCMV NEC inh
Cc1ccc2[nH]c(=O)cc(C(=O)OCC(=O)c3ccc(F)cc3)c2c1	nt	94	88	1
CCc1nc(SCC(=O)Nc2cc(C)on2)n[nH]1	nt	116	88	-9
CCOC(=O)C1=C(C)N=c2s/c(=C\c3cc(Br)c(O)c(OC)c3)c(=O)n2C1c1ccc(OC)c(OC)c1 (stereo unspecified)	147	nt	nt	-27
CCC1SC(CC)C(=O)N(CC(=O)Nc2ccc(F)cc2F)C1=O (stereo unspecified)	98	94	82	-31
CCc1nn(-c2ccccc2)c2c1CN(C(=O)Nc1ccc3c(c1)OCO3)C(c1ccccc1)c1cccn1-2 (stereo unspecified)	103	nt	nt	1
CCCc1c(C(=O)Nc2cc(-c3ccccc3)nn2C)cnn1-c1ccccc1	105	96	102	-15
COC(=O)c1c(C)[nH]c(C(=O)COn2nnc3ccc(S(=O)(=O)N(C)C)cc32)c1C	nt	101	93	11
CCS(=O)(=O)c1ccc2oc(SCC(=O)Nc3ccccc3C(F)(F)F)nc2c1	nt	107	90	-16
CN(CC(=O)NCCc1ccc(S(N)(=O)=O)cc1)S(=O)(=O)c1ccc2c(c1)CCC(=O)N2	105	nt	nt	-11
COc1ccc(-c2noc(-c3ccc(N4CCN(C)CC4)c([N+](=O)[O-])c3)n2)cc1OC	101	101	72	-54
CCOC(=O)Cn1c(=O)n(CC2CCCO2)c2nc(-c3ccccc3F)nc(C(N)=O)c21 (stereo unspecified)	104	83	92	nt
CCOc1ccc(CNC(=O)c2ccccc2NC(=O)c2nsc3ccccc23)cc1	105	124	86	nt
Cc1cccc(N2CCN(S(=O)(=O)c3cc(Cl)ccc3Cl)CC2)c1C	99	94	102	9
CCOC(=O)N1CCc2c(sc3c2c(=O)n(CCc2ccccc2)c(=O)n3C)C1	109	106	98	7
O=C(CC(c1ccccc1)c1ccccc1)c1nnc(-c2ccccc2)o1	nt	106	90	0
CCN(CC)C(=O)CSc1nc(-c2ccccc2F)nc2c1Cc1c(CO)cnc(C)c1O2	106	93	88	nt
CCc1ccccc1NC(=O)CC(O)(C(=O)OC)C(F)(F)F (stereo unspecified)	103	101	103	-9
c1ccc(Sc2ncnc3sccc23)cc1	103	86	93	-13
COC(=O)c1ccc(Nc2nc(-c3ccc(Br)cc3)c(C)s2)cc1	nt	91	90	9
O=C(NCCCc1ccccc1)c1cc(-c2cccnc2)nc2ccccc12	111	nt	nt	-27
COc1cc2c(=O)n(Cc3ccc(C(=O)NCCC(C)C)cc3)c(=O)n(CC(N)=O)c2cc1OC	103	nt	nt	-15
S=c1cc(-c2ccccc2)oc2ccccc12	103	66	54	-4
Cc1ccc(C)c(CSC2=NCCN2C(=O)c2ccc(S(=O)(=O)N3CCOCC3)cc2)c1	108	116	91	nt
CC(=O)N/C(=C/c1ccccc1Br)C(=O)NCc1ccc(C)cc1	99	130	93	nt
O=C(CCCN1C(=O)/C(=C/c2ccc(Br)cc2)SC1=S)Nc1nccs1	103	nt	nt	-17
C=CCN1C(=O)/C(=C\c2cccs2)SC1=Nc1ccccc1	nt	100	96	-3
CCN(CC)C(=O)C1CC(c2ccccc2OC)=NO1 (stereo unspecified)	102	94	78	-40

Compounds above with an NH in an aromatic ring, in the order listed:
SMILES	GIV-Gai inh	Sa growth 42C	Sa growth 42C second temp	HCMV NEC inh
COc1ccc(C2CC(=O)Nc3nc(N)[nH]c(=O)c32)cc1OC (stereo unspecified)	96	nt	nt	-1
CCOC(=O)NC(=O)c1cn(Nc2ccccc2)c(=O)[nH]c1=O	105	102	74	-27
O=C(Nc1ccc(C(=O)N2CCCCC2)cc1)c1ccc(=O)[nH]c1	105	96	94	nt
O=S(=O)(c1ccc2[nH]c3c(c2c1)CCCC3)N1CCCCC1	94	95	81	nt
Fc1ccc(-c2[nH]ncc2CN2CCCC2c2cccc(F)c2)cc1 (stereo unspecified)	106	nt	nt	-30
O=c1[nH]cccc1Br	100	98	91	-18
O=C(NC1CC1)c1cc(=O)[nH]c2ccc(Br)cc12	105	122	91	-5
Cc1cc(=O)[nH]c2nnc(SCc3ccc(Cl)c(Cl)c3)n12	101	93	102	nt
O=C(CCCn1c(=O)[nH]c2ccccc2c1=O)N(Cc1ccccc1)Cc1ccccc1	103&99	95	84	3
Cc1ccc2[nH]c(=O)cc(C(=O)OCC(=O)c3ccc(F)cc3)c2c1	nt	94	88	1
CCc1nc(SCC(=O)Nc2cc(C)on2)n[nH]1	nt	116	88	-9
COC(=O)c1c(C)[nH]c(C(=O)COn2nnc3ccc(S(=O)(=O)N(C)C)cc32)c1C	nt	101	93	11

High-throughput results (PubChem BioAssay)
